# Sfp inh: inhibitors of Bacillus subtilis Sfp phosphopantetheinyl transferase. AID 1490. Biochemical Sfp PPTase activity, qHTS. Q9F4F7. hit rate 3.5% among 310,000. Potency, µM, without a hit: max response, negative = inhibition, actives largely listed as inhibitors; active = well fitted inhibition curve with a large enough effect; inconclusive = small, poorly fitted or top-dose-only effect, or another doubt; inactive = no such curve, though single readings can be large or run the other way;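 also: the enzyme is Sfp with the accession as filed and its product quenches rhodamine fluorescence; potency is read from the fitted curve at half-maximal effect; 0% = enzyme reaction without inhibitor and -100% = no enzyme wells; top concentration of the series not given in the record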
#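 Step 1, compound plus 15 nM Sfp-PPTase, 15 min, room temperature. Step 2, add rhodamine-CoA (5 uM) and BHQ-2-YbbR (12.5 uM). Step 3, read 525/598 nm fluorescence at 0 and 30 min.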
# Menin-MLL FL inh: displaces fluorescein MLL peptide from human menin. FP activity change, % at 61.4 µM. Fluorescence polarization, fluorescein-MLL peptide displacement from menin. 290,000 tested, under 10 active; inconclusive = falling polarisation curve, or a change in total fluorescence; inactive = total fluorescence flat and polarisation flat or rising; no compound was filed as active; the % refers to the polarisation; negative = inhibition;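 also: % of control where 0% means no effect; inhibitors lower the polarisation; unlabelled MLL peptide was the positive control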
# * = called active by the depositor; ? = inconclusive; & = joins results of further samples; [ ] = remark or other dose. This is a subset (hit frequency here may not be typical).
Sfp inh,Menin-MLL FL inh,molecule
?,-5.5,COc1ccc(-c2nc3cnc(N4CCNCC4)nc3n(CCc3ccccc3)c2=O)cc1
31%[activator],0.6,N#Cc1ccc(CN2CCC3(CC2)CCN(C(=O)c2ccco2)CC3)cc1
13%&16%&-12%,-1.7&5.0,O=c1cc(N2CCOCC2)oc2c(-c3ccccc3)cccc12
-9%,7.7,COC(=O)C1C[C@@H]2C3=C(C(=O)[C@@](C)(NC(=O)c4ccccc4)C3[C@H](C(=O)OC)C1)[C@H](C)n1c(=O)n(-c3ccccc3)c(=O)n12 (some centres undefined)
-15%&9%,-1.2&-7.8,Cc1cc2c(c(C)c1Cl)C(c1ccc3c(c1)OCO3)CC(c1ccccc1)O2 (centres undefined)
4%,-5.3[11.7 µM],CCN1C(=O)[C@H]2[C@H]3[C@H](O)[C@H](O)C/C(=N/O[C@@H]4O[C@@H](COC(C)=O)[C@@H](OC(C)=O)[C@@H](OC(C)=O)[C@H]4OC(C)=O)[C@H]3CC[C@@H]2C1=O
-1%,-0.8,CC(=O)OC1CC(O)C(C)(C)C2CC(OC(C)=O)[C@]3(C)C(CC[C@@]4(C)C(c5ccoc5)OC(=O)C5OC534)[C@]12C (some centres undefined)
25%,-4.7[24.8 µM],CCN[C@@H]1C[C@H](N)[C@H](O[C@H]2OC(CN)=CC[C@H]2N)[C@@H](O)[C@H]1O[C@H]1OC[C@@](C)(O)[C@@H](NC)[C@@H]1O
1%,-0.7[11.7 µM],COC(=O)C1=C(C(=O)OC)[C@@H]2Nc3ccccc3[C@@]23C[C@@H](C(=O)OC)N(S(=O)(=O)c2ccc([N+](=O)[O-])cc2)C3=N1
11%,-3.0,CCCC[C@H]1CCCO[C@@](C(=O)NCc2cc(C)n(C)n2)(C(F)(F)F)C1
-1%,5.5,COC(=O)N1CCC2(CCCN(c3ccc(-c4ccccc4)cc3)C2)CC1
50µM*,-2.7,CCCCc1nc2ccn(CC(=O)N(C)C)c(=O)c2n1Cc1ccc(-c2ccccc2-c2nn[nH]n2)cc1

# Compounds listed so far that have a carbonyl joined to an NH by a bond outside any ring, in the order listed:
Sfp inh,Menin-MLL FL inh,molecule
-9%,7.7,COC(=O)C1C[C@@H]2C3=C(C(=O)[C@@](C)(NC(=O)c4ccccc4)C3[C@H](C(=O)OC)C1)[C@H](C)n1c(=O)n(-c3ccccc3)c(=O)n12 (some centres undefined)
11%,-3.0,CCCC[C@H]1CCCO[C@@](C(=O)NCc2cc(C)n(C)n2)(C(F)(F)F)C1

# (next part)
Sfp inh,Menin-MLL FL inh,molecule
-5%,-2.2,COc1ccc(-c2c(C3C4C=CCC(C)C4C(=O)N3Cc3ccccc3)ccc3ccccc23)cc1OC (centres undefined)
-13%,-4.9,COC(=O)CCC(=O)OC1(C)C(=O)C=C2C=C(C3CC3)OC=C2C1=O (centres undefined)
-25%,-10,Cc1noc(C)c1-c1cc(NCCN2CCOCC2)ncn1
22%,8.4,COc1cccc(Cn2c(=O)c(-c3cccs3)nc3cnc(OCc4ccccc4)nc32)c1
-19%,16,CCCN=C(N)NCCC[C@H](N)C(=O)O
19%,-2.7,CC(=O)O[C@@H](C)C#C[Si](C)(C)c1ccccc1
14%,0.4[11.7 µM],CC(C)=NOC[C@@H](C)[C@H](OCc1ccccc1)C(C)C
5%,3.1,N#Cc1cccc(NC(=O)N2CC[C@@]3(CCCN(C(=O)c4cc(C(F)(F)F)cc(C(F)(F)F)c4)C3)C2)c1
23%,-6.0,Nc1nc(O)c2ncn([C@H]3CC[C@@H](CO)O3)c2n1
10%,12,COC(=O)[C@@]1(Cc2ccc(OC)cc2)[C@H]2c3cc(C(=O)N4CCCC4)n(CCCNc4ncc(C(F)(F)F)cc4Cl)c3C[C@H]2CN1C(=O)c1ccccc1
?,-0.5,NC1(C(=O)O)CCc2cc(C(=O)O)ccc21 (centres undefined)
79µM*,1.1,COc1ccccc1CNc1ccnc(-c2ccccc2OC)n1
3%,6.2,Cc1nc2cnc(N(C)C)nc2n(CCc2ccccc2)c1=O
39%[activator],-7.1,COC(=O)[C@@]1(C)C[C@@H]1[C@@H](NC(=O)[C@@]1(C)C[C@@H]1[C@@H](NC(=O)[C@@]1(C)C[C@@H]1[C@@H](NC(=O)[C@@]1(C)C[C@@H]1[C@@H](NC(=O)OCc1ccccc1)c1ccccc1)c1ccccc1)c1ccccc1)c1ccccc1
-18%,-0.2,CC(=O)Nc1ccc(SCC(c2ccccc2)N2CCN(CC(C)C)CCC2=O)cc1 (centres undefined)
7%,0.7,Cc1cnc(CNc2cc(-c3ccc4c(c3)OCO4)ncn2)cn1
-15%,-1.9[11.7 µM],CCCCC#CC1C=CC(Oc2cc(OC)c(OC)c(OC)c2)C(COC(=O)OCC)O1 (centres undefined)
5%,-2.4[11.7 µM],C[C@@H]1OC2C3=C(C(=O)[C@H]4O[C@@H]4[C@H]3O)[C@@H]1[C@H]1[C@H](C)OC=C3[C@H](O)[C@H]4O[C@H]4/C(=N\OCc4ccccc4)[C@@]321
-4%,-2.1,O=C(c1csnn1)N1CCC2(CCCN(Cc3ccccc3)C2)CC1
-22%,5.8,C#C[C@]1(OC(C)=O)CC[C@H]2[C@@H]3CCC4=CC(=O)CC[C@@H]4[C@H]3CC[C@@]21C
-23%&-23%,-0.4&-5.1,Cc1cnc(C(=O)O)c[n+]1[O-]
-12%&-11%,?,COc1ccc(NS(=O)(=O)c2ccc(I)cc2)cc1N1CCN(C)CC1
0%,-17,CC(=O)OC1CCC2(C)C(CCC3(C)C2C(=O)C=C2C4CC(C)(C(=O)OCCN5CCCCC5)CCC4(C)CCC23C)C1(C)C (centres undefined)
5%,?,C=C(CO)C1Cc2c(ccc3c2OC2COc4cc(OC)c(OC)cc4C2C3=O)O1 (centres undefined)
7%,0.4[11.7 µM],CCCCC#CC1C=CC(Oc2ccc(C(=O)OC)cc2)C(COC(=O)OCC)O1 (centres undefined)
-19%,?,CN(C)c1ncc2nc(-c3cc(F)cc(F)c3)c(=O)n(CCc3ccccc3)c2n1
33%[activator],1.2,CS(=O)(=O)N1CCC2(CCCN(Cc3ccc(C#N)cc3)C2)CC1
21%,-0.4,OCC1O[C@H](OC2C(CO)O[C@@](O)(CO)C2O)C(O)C(O)C1O (some centres undefined)
-20%,-2.6[11.7 µM],COc1ccc(-c2nc3c(c4c2C[C@H](c2ccccc2)OC4)CN(C(=O)N[C@@H](C)c2ccccc2)CC3)c(C)c1
-21%,-5.2,COc1ccc(C2=Nn3c(nnc3-c3ccccc3OC)SC2)c(OC)c1
-1%,-0.5[94.6 µM],C=C1c2cccc(OC)c2O[C@H](C(=O)OCC)[C@@H]1CCC(C)C
8%,-1.2,CCc1ccc(C(=O)C(C)CN2CCCCC2)cc1 (centres undefined)
4%,-2.5,CN(C)CC[C@@](O)(c1ccccc1)c1ccccc1Cl
4%,5.3,CN(C)C1CCc2[nH]c3ccc(NC(=O)c4ccc(F)cc4)cc3c2C1 (centres undefined)
8%,-1.4,O=S1(=O)C2CC3C=CC2(CN1Cc1cccc(F)c1)O3 (centres undefined)
-13%,0.5[11.7 µM],C#CCCCO/N=C1/C[C@@H](O)[C@@H](O)[C@@H]2[C@@H]3C(=O)N(Cc4ccc5c(c4)OCO5)C(=O)[C@H]3CC[C@H]12
-14%,4.8,COC(=O)N[C@@H](c1ccc(Br)cc1)C(C(=O)OC)C(=O)OC
30%[activator],-0.8[24.8 µM],CC[C@H](c1ccc(O)cc1)[C@@H](CC)c1ccc(O)cc1
1%,-0.6,O=c1c(-c2ccc(F)cc2)nc2cnc(N3CCOCC3)nc2n1CCc1ccccc1
-10%,4.1,CC(=O)OC1CC(OC(C)=O)[C@]2(C)C(CC(=O)[C@]3(C)C2CC[C@@]2(C)C(c4ccoc4)OC(=O)C4O[C@@]423)C1(C)C (some centres undefined)
-8%&24%,-1.8,CCCCC/C=C\C/C=C\CCCCCCCC(=O)O[C@@H](CO)COC(=O)CCCCCCCCCCCCCCCCC
20%,17,COc1ccccc1CN1CCCC2(CCN(C(=O)c3ccncc3)CC2)C1
?,0.4,COc1ccc(CNc2nc(-c3ccccc3CN(C)C)nc3ccccc23)c(OC)c1
13%,-1.5[11.7 µM],O=C1[C@@H]2[C@H]3[C@H](O)[C@H](O)C/C(=N/OC[C@@H](O)COCc4ccco4)[C@H]3CC[C@H]2C(=O)N1c1ccc(F)cc1F
9%,?,CN(C)c1ncc2nc(-c3cccs3)c(=O)n(-c3ccccc3)c2n1
16%,-0.4,CC(=O)N1CCC2(CC1)CCN(c1ccccn1)CC2
7%,1.0,COc1cccc(CS(=O)(=O)c2ccccc2)c1
0%,-0.9,CC(C)(C)OC(=O)NS(=O)(=O)Nc1ccccc1Br
-5%,0.6,CC(=O)Nc1ccc(SCC(CC(C)C)N2CCN(CC(C)C)CCC2=O)cc1 (centres undefined)
2%,-7.7,O=C(Cl)COCc1ccccc1
-9%,-2.4,CN(Cc1ccco1)c1nc(-c2ccccc2Cl)nc2ccccc12
?,2.1,CC(NC(=O)C1CCCN1C(=O)CN)C(=O)O (centres undefined)
22%,-1.3,Nc1nc2c(nc(Cl)n2C2OC(CO)C(O)C2O)c(=O)[nH]1 (centres undefined)
24%,-1.4,CSCC[C@H](NC(=O)[C@H](CC(C)C)NC(=O)CNC(=O)[C@H](Cc1ccc(O)cc1)NC(=O)[C@H](Cc1ccccc1)NC(=O)[C@H](CCCCN)NC(=O)[C@H](CC(N)=O)NC(=O)[C@@H]1CCCN1C(=O)[C@H](CC(=O)O)NC(=O)[C@H](C)NC(=O)[C@@H]1CCC(=O)N1)C(N)=O
13%,-11,CC(C)NC[C@@H](O)COc1ccccc1-n1cccc1
-3%,5.3,O=c1c(-c2cc(F)cc(F)c2)nc2cnc(N3CCNCC3)nc2n1-c1ccccc1
2%,0.0[11.7 µM],C[C@@H](c1ccccc1)N1C(=O)[C@H]2[C@H]3[C@H](O)[C@H](O)C/C(=N/OCc4ccccc4)[C@@H]3CC[C@@H]2C1=O
-22%,0.4,Cc1noc(C)c1-c1nc(NCc2cccnc2)c2ccccc2n1
?,-2.6,COc1ccc2[nH]cc(CCNc3ncncc3-c3ccc4c(c3)OCO4)c2c1
-4%,-0.8,COc1ccc(C(=O)N2CCC3(CC2)CN(C(=O)Nc2ccccc2)C3)cc1

# Whole records as entered above.
# Cc1noc(C)c1-c1nc(NCc2cccnc2)c2ccccc2n1 reads Sfp inh: -22%; Menin-MLL FL inh: 0.4
# COc1ccc2[nH]cc(CCNc3ncncc3-c3ccc4c(c3)OCO4)c2c1 reads Sfp inh: ?; Menin-MLL FL inh: -2.6
# CC(NC(=O)C1CCCN1C(=O)CN)C(=O)O (centres undefined) reads Sfp inh: ?; Menin-MLL FL inh: 2.1

# (continued)
Sfp inh,Menin-MLL FL inh,molecule
14%,1.1,O=C(c1cc(C(F)(F)F)cc(C(F)(F)F)c1)N1CCC2(CC1)CN(c1ccccn1)C2
-9%,1.8,CC(C)CC(CSc1ccc(Br)cc1)N1CCN(CC(C)C)CCC1=O (centres undefined)
-49%,-0.7,CC(=O)N1CCN(c2ccc(OCC3CO[C@@](Cn4ccnc4)(c4ccc(Cl)cc4Cl)O3)cc2)CC1 (some centres undefined)
14%,-10,COc1ccccc1CN1CC[C@@]2(CCCN(C(=O)c3ccncc3)C2)C1
3%,1.0,COc1ncc2nc(-c3cc(F)cc(F)c3)c(=O)n(CCC#N)c2n1
-1%,2.9,CCC1OC(=O)C(C)[C@@H](O[C@H]2C[C@@](C)(OC)C(O)C(C)O2)C(C)[C@@H](O[C@@H]2OC(C)CC(N(C)C)C2O)[C@](C)(O)CC(C)/C(=N\OCOCCOC)[C@H](C)C(O)[C@]1(C)O (some centres undefined)
-27%,-9.5,COc1ccc(-c2ccc(OC)c(C3C4C=CCCC4(C)C(=O)N3Cc3ccccc3)c2)cc1 (centres undefined)
-11%,1.3,C=C(C[C@]1(C(=O)OC)CC2(CC=C(C)C)C(=O)C(C(=O)CC(C)C)=C(O)C(CC=C(C)C)(C1)C2=O)C(=O)OC (some centres undefined)
-4%,9.9[11.7 µM],COC(=O)N1C(/C=C/C=C/c2ccc(OC)cc2)=Cc2ccccc2C1CC(C)=O (centres undefined)
-8%,-0.1[11.7 µM],O=C1[C@@H]2[C@H]3C(=CC[C@@H]2C(=O)N1Cc1ccccc1)C1(OCCCO1)[C@H]1O[C@@H]1[C@H]3O
17%,-7.1,O=C(c1cc(C(F)(F)F)cc(C(F)(F)F)c1)N1CCC2(CCN(Cc3ccccc3)CC2)CC1
4%,0.4,CC(=O)N1CCC2(CCCN(c3ccccn3)C2)CC1
-9%,-0.3,CC[C@H](C)[C@H](NC(=O)[C@H](CO)NC(=O)[C@@H](NC(=O)[C@H](CO)NC(=O)[C@@H](NC(=O)[C@H](CC(N)=O)NC(=O)[C@H](Cc1ccccc1)NC(=O)[C@H](CO)NC(=O)[C@H](CS)NC(=O)[C@H](CC(N)=O)NC(=O)[C@H](CCCCN)NC(=O)[C@@H](NC(=O)[C@H](CCC(=O)O)NC(=O)CN)[C@@H](C)CC)[C@@H](C)CC)[C@@H](C)O)C(=O)N[C@@H](CCCN=C(N)N)C(=O)O

# High-throughput results from PubChem.
